# Screening results (PubChem BioAssay)
# VCAM-1 inhibition: inhibitors of TNFa-induced VCAM-1 surface display, cell-based, plate reader, pooled HUVEC, TNFa stimulus (AID 454); HUVEC TNFa-induced VCAM-1 surface immunofluorescence, plate reader; numbers were filed only for top-ranked candidate wells; inhibition, % at 5 µM; 10,000 tested, 0.2% active;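 active means compound among top-ranked inhibitors of TNF-induced VCAM-1 adhesion protein staining, with the hit upheld by image or statistical review; inactive means the rest, including hits rejected on review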;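 further: 0% = TNFa with vehicle and 100% = cells without TNFa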
# VCAM-1 augmentation: boosters of cytokine-driven VCAM-1 levels – imaging, high-content imaging, pooled HUVEC, TNFa stimulus (AID 457); Pooled HUVEC, TNFa-induced VCAM-1 immunofluorescence imaging; hits of this screen are not shown here; calls only; 10,000 tested, 0.2% active;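 active means a top-ranked rise in VCAM-1 staining upheld on image or statistical review; inactive means the rest, including candidates rejected on review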;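 further: compounds tested at 5 µM in the well; cells exposed to compound for 24 hours before fixing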
# FPR binder: binds the human formylpeptide receptor FPR; P21462; 24,000 tested, 0.74% active; inhibition, %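 (tested at 6.7 µM)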; FPR-expressing cells, fluorescent ligand binding, flow cytometry; AID 440;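 further: 0% = buffer wells and 100% = receptor blocker peptide wells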
# Target sequence (P21462 whole entry, looked up): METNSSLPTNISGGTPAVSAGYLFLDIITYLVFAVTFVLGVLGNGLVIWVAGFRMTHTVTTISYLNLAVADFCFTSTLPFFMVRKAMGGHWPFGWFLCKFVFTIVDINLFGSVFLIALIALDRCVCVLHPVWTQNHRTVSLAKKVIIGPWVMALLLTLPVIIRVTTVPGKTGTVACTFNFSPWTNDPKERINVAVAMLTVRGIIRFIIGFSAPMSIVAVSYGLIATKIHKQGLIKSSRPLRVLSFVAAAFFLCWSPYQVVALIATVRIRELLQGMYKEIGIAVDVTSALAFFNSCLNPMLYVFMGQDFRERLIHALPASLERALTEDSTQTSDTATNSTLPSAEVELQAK
# FPRL1 ligand: human FPRL1 ligand, with FPR counter-screen. P25090. FPRL1-expressing cells, fluorescent ligand binding inhibition, flow cytometry. inhibition, %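 (tested at 6.7 µM)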. 24,000 tested, 0.3% active. AID 441;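 further: 0% = buffer alone and 100% = receptor blocker peptide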
# Target sequence (P25090 whole entry, looked up): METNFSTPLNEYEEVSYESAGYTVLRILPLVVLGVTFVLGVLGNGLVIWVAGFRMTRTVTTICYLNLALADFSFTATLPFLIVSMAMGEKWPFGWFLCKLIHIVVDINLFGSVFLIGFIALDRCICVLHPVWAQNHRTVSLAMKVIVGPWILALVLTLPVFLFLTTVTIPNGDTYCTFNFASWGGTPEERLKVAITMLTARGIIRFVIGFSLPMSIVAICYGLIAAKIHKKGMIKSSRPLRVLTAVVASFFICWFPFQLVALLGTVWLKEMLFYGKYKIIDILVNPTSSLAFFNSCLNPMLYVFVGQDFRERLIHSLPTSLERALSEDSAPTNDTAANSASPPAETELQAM
# VCAM-1 down imaging: suppression of endothelial VCAM-1 upregulation – imaging, high-content imaging, pooled HUVEC, TNFa stimulus (AID 456). HUVEC TNFa-induced VCAM-1 surface expression, immunofluorescence imaging; numbers were filed only for top-ranked candidate wells. inhibition, % at 5 µM; hits with a dose series show IC50 in µM. 10,000 tested, 0.2% active;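 active means top tenth filtered wells with inhibition above zero that passed visual or statistical confirmation; inactive means the rest, including hits rejected on review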;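 further: 0% = stimulated vehicle wells and 100% = unstimulated cells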
# * hit, by the source's call; i = inactive; / = not tested or not shown.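 How the source made its calls, unless noted: active means mean above 30%; inconclusive means self-fluorescent; inactive means the rest.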 A portion of the library; the hit share may differ from the screen's.
SMILES,VCAM-1 inhibition,VCAM-1 augmentation,FPR binder,FPRL1 ligand,VCAM-1 down imaging
CN1C(=O)c2c(sc3c2CCCC3)NC1c1ccccc1O (stereo not drawn),i,i,26,-2,i
CCOC(=O)N1CCC(NC(=O)Cn2c3c(c(-c4ccccc4Cl)cc2=O)CCC3)CC1,i,i,4,-3,i
CCOC(=O)c1nnn(-c2nonc2-n2cccc2)c1CN1CCC(C)CC1,/,/,-6,-2,/
CC1(C)CC(=O)c2c(O)cc(O)cc2O1,i,i,-12,-2,i
O=C(NC1CCCc2ccccc21)C1CCN(S(=O)(=O)N2CCCCCC2)CC1 (stereo not drawn),/,/,-4,-5,/
CCOc1ccc(CCNC(=O)C2CCCN(c3nn4c(=O)cc(C)nc4s3)C2)cc1OCC (stereo not drawn),/,/,2,0,/
CCc1c(C)sc(NC(=O)c2cc(-c3ccco3)on2)c1C#N,/,/,-4,-4,/
Cc1ccc(N(C(=O)c2ccc3c(c2)OCO3)C2C=CS(=O)(=O)C2)cc1 (stereo not drawn),/,/,-1,-2,/
CCOC(=O)Cc1csc(NC(=O)COc2ccc(OC)cc2)n1,/,/,0,3,/
COc1ccc(C)cc1C(=O)C1CC(C(=O)O)C(C)(C)C1C (stereo not drawn),/,/,9,8,/
COc1cccc(-c2nc(CS(=O)CC(=O)NCCCOC(C)C)c(C)o2)c1 (stereo not drawn),i,i,-1,-2,i
CCCS(=O)(=O)N1CCCC(C(=O)NCCc2ccc(OC)c(OC)c2)C1 (stereo not drawn),/,/,-1,5,/
COC(=O)C(C)Sc1nnc(Cc2cc(=O)[nH]c(=O)[nH]2)n1-c1ccc(Cl)cc1 (stereo not drawn),/,/,4,-5,/
CCOc1ccc(NCCC(=O)c2ccc3c(c2)OCO3)cc1,i,i,2,-5,i
O=C(Nc1cccc(Cl)c1)C1CCCN(S(=O)(=O)c2cnc[nH]2)C1 (stereo not drawn),/,/,-6,-6,/
CSc1nnnn1CCn1nnnc1SC,/,/,-3,2,/
CC1CC(C)(C)NCc2ccccc21 (stereo not drawn),/,/,4,-5,/
COCCNC(=O)Cn1c(=O)n(Cc2ccc(C(=O)NCc3ccco3)cc2)c(=O)c2ccccc21,/,/,7,-5,/
NS(=O)(=O)c1ccc(CCNC(=O)CCCC2=NS(=O)(=O)c3ccccc3N2)cc1,/,/,-1,-3,/
Cc1ccc(C)c(/C(O)=C2\C(=O)C(=O)N(Cc3cccnc3)C2c2cccnc2)c1 (stereo not drawn),/,/,-2,2,/

# An excerpt of these results, with values under each structure:
# The line under a structure holds: VCAM-1 inhibition	VCAM-1 augmentation	FPR binder	FPRL1 ligand	VCAM-1 down imaging
- CCOc1ccc(CCNC(=O)C2CCCN(c3nn4c(=O)cc(C)nc4s3)C2)cc1OCC (stereo not drawn)
 : /	/	2	0	/
- CCc1c(C)sc(NC(=O)c2cc(-c3ccco3)on2)c1C#N
 : /	/	-4	-4	/
- Cc1ccc(N(C(=O)c2ccc3c(c2)OCO3)C2C=CS(=O)(=O)C2)cc1 (stereo not drawn)
 : /	/	-1	-2	/

# Profiles, quoted from the list.
# COc1cccc(-c2nc(CS(=O)CC(=O)NCCCOC(C)C)c(C)o2)c1 (stereo not drawn) is entered as VCAM-1 inhibition = i; VCAM-1 augmentation = i; FPR binder = -1; FPRL1 ligand = -2; VCAM-1 down imaging = i
# COCCNC(=O)Cn1c(=O)n(Cc2ccc(C(=O)NCc3ccco3)cc2)c(=O)c2ccccc21 is entered as VCAM-1 inhibition = /; VCAM-1 augmentation = /; FPR binder = 7; FPRL1 ligand = -5; VCAM-1 down imaging = /
# CCCS(=O)(=O)N1CCCC(C(=O)NCCc2ccc(OC)c(OC)c2)C1 (stereo not drawn) is entered as VCAM-1 inhibition = /; VCAM-1 augmentation = /; FPR binder = -1; FPRL1 ligand = 5; VCAM-1 down imaging = /

# Next structures follow:
SMILES,VCAM-1 inhibition,VCAM-1 augmentation,FPR binder,FPRL1 ligand,VCAM-1 down imaging
O=C(CSc1nc(-c2ccco2)cc(C(F)(F)F)n1)Nc1ccc(C(=O)N2CCCCC2)cc1,/,/,12,7,/
CCOc1ccc(CC(=O)Nc2c(C(N)=O)oc3ccccc23)cc1OCC,/,/,0,4,/
COc1cccc(-c2cc(C(=O)NCc3ccco3)no2)c1,/,/,-6,-7,/
Cc1ccc(OC(=O)c2cccc(C(=O)Oc3ccc(C)cn3)n2)nc1,/,/,-2,-2,/
COc1ccc(-n2c(COc3ccccc3)nnc2SCc2ccc(C#N)cc2)cc1,i,i,-14,0,i
CCOCCn1cnc2sc(C(=O)Nc3nc(C)c(C(=O)OCC)s3)c(C)c2c1=O,i,i,7,3,i
COc1cc2c(cc1OC)CN(C(=O)CSc1nnc3scc(-c4ccccc4)n13)CC2,i,i,1,-2,i
O=C(Nc1cccc(C(F)(F)F)c1)c1cccnc1N1CCCC1,i,i,14,6,i
Cc1oc(-c2ccccc2F)nc1CS(=O)(=O)CC(=O)N1CCOCC1,/,/,-2,0,/
COc1cccc(-c2nnc(NC(=O)c3ccc(S(=O)(=O)N4CCOCC4)cc3)o2)c1,/,/,-4,7,/
CCOc1ccc(N(CC(=O)NC(C)(C)C)S(=O)(=O)c2c(C)noc2C)cc1,/,/,0,6,/
CCOC(=O)C(NC(C)=O)(Nc1ccc(S(=O)(=O)Nc2cc(C)nc(C)n2)cc1)C(F)(F)F (stereo not drawn),/,/,2,6,/
COc1ccc(CNC(=O)Nc2cccs2)cc1OC,/,/,-2,0,/
O=C1NC(c2ccccn2)Nc2sc3c(c21)CCC3 (stereo not drawn),/,/,1,3,/
CCOc1ccccc1CNS(=O)(=O)c1ccc2c(c1)oc(=O)n2C,/,/,-1,4,/
Cc1cc(NC(=O)CCCC(=O)Nc2ccc(F)cc2)no1,i,i,3,-2,i
COC(=O)c1cc(-c2ccccc2)n(CC(=O)O)c1C,/,/,4,5,/
CCOC(=O)c1c(NC(=O)C2C3CCC(O3)C2C(=O)O)sc(C)c1-c1ccc(F)cc1 (stereo not drawn),/,/,9,12,/
NC(=O)CN1CCN(C(=O)NC2CCCCC2)CC1,/,/,0,5,/
COc1ccc(NC(=O)CNS(=O)(=O)c2cccs2)cc1,/,/,-2,-1,/
Cc1cccc(-n2ccnc2SCC(=O)Nc2cc(C)on2)c1,i,i,-5,-2,i
CCOC(=O)c1[nH]c2ccccc2c1NC(=O)c1ccco1,i,i,1,-1,i
CCCCC(=O)Nc1c(O)c2ccccc2[nH]c1=O,i,i,-5,-3,i
COc1ccc(-n2c(C)nc3cc(C(=O)NCc4ccco4)ccc32)cc1,/,/,-2,0,/
O=C(Nc1ccccc1C(=O)O)c1cccc(NC(=O)c2ccc(Br)o2)c1,i,i,-2,-2,i
C=CCn1cc(C(=O)NCC2CCCO2)c(=O)c2cc(S(=O)(=O)N3CCCCCC3)ccc21 (stereo not drawn),/,/,0,4,/
CC(=O)c1ccc(NC(=O)c2ccn[nH]2)cc1,/,/,2,1,/
O=[n+]1cc(-c2ccc(F)cc2)n([O-])c2c1CCC2,i,i,5,0,i
O=C(O)C1CCCCC1C(=O)Nc1ccccc1Cl (stereo not drawn),/,/,22,23,/
Cc1ccc(S(=O)(=O)Nc2ccc3ncccc3c2)cc1,/,/,2,4,/
COc1ccc2nc(NC(=O)CSc3nnc(-c4ccoc4C)n3C)sc2c1,i,i,6,0,i
CCOc1ccc(C2/C(=C(/O)c3ccc(F)cc3)C(=O)C(=O)N2CCCN(C)C)cc1 (stereo not drawn),/,/,12,16,/
CCN1CCN(c2c(Cl)cccc2NC(=O)c2ccco2)CC1,i,i,-13,-10,i
CC(=O)c1cccc(NC(=O)c2oc(C)nc2C)c1,/,/,0,0,/
CCOC(=O)c1ccccc1NC(=O)c1cccc2c1C(=O)N(C1CCN(C(=O)OCC)CC1)C2,/,/,-10,-4,/
Cc1cc(NC(=O)c2cc(-c3cccs3)on2)no1,/,/,1,2,/
CSc1ccccc1NC(=O)c1noc2c1CCC2,i,i,-4,-1,i
NC(=O)CSc1nc(-c2ccccc2Cl)ns1,/,/,-2,-3,/
CC(=O)C1=C(O)C(=O)N(Cc2ccco2)C1c1ccc2c(c1)OCO2 (stereo not drawn),i,i,0,-4,i
CC1(C)CC(=O)N(CC(=O)NCc2ccc(F)cc2)c2ccccc2S1(=O)=O,/,/,-4,1,/
C=CCn1c(SC(C)C(=O)NC2(C#N)CCCCC2)nnc1-c1ccc(OC)cc1 (stereo not drawn),i,i,-7,-2,i
O=C(O)c1cccc(S(=O)(=O)Nc2ccc3oc(=O)sc3c2)c1,/,/,1,-1,/
COc1ccc2c(=O)c3c(=O)n(Cc4ccco4)c(-c4cc(OC)c(OC)c(OC)c4)nc3oc2c1,i,i,2,1,i
COCCNC(=O)CN1CCN(Cc2cccc(Cl)c2)C1=O,i,i,-2,-2,i
COC(=O)Cc1cc(=O)[nH]c(Nc2nc3ccccc3o2)n1,i,i,3,9,i
COc1ccccc1NC(=O)NC(N)=O,i,i,-3,3,i
C[N+](C)(C)C/C=C1/COCO1,/,/,-5,-4,/
CCc1c(C)sc(NC(=O)c2cc(C)no2)c1C#N,/,/,9,7,/
O=C(c1ccc(Cn2c(=O)[nH]c3ccccc3c2=O)cc1)N1CCN(c2ccccc2)CC1,/,/,3,-1,/
O=C(Nc1ccc2c(c1)OCO2)C1(S(=O)(=O)c2ccc(Cl)cc2)CC1,/,/,0,2,/
CC(NS(=O)(=O)c1ccc(F)cc1)C(c1cccs1)N1CCN(C)CC1 (stereo not drawn),i,i,-2,0,i
COc1ccccc1Cn1c(=S)[nH]c2cc(C(=O)NCCN3CCOCC3)ccc2c1=O,/,/,-5,-3,/
O=C(Cn1ccc2ccccc2c1=O)NCCC(=O)Nc1cccnc1,/,/,5,-5,/
O=C(CSc1ccc2nnc(-c3ccc(F)cc3)n2n1)NCc1ccco1,/,/,-6,-1,/
COc1ccc(C2OC(=O)CC2C(=O)N2CCN(c3cc(Cl)ccc3C)CC2)cc1OC (stereo not drawn),/,/,12,22,/
CCOC(=O)C1CCN(c2nnc(N3CCCC3=O)s2)CC1,/,/,-3,6,/
Cc1ccc(-n2ncc3c(=O)[nH]c(SCC(=O)N4CCN(c5ccccc5)CC4)nc32)cc1,i,i,-3,-2,i
Cc1ccc(NC(=O)Nc2ccc3c(c2)N(C)C(=O)CS3)nc1,i,i,1,0,i
CC1(C)Cc2c(c(-c3ccccc3)nc(N3CCCC3)c2C(N)=O)CO1,i,i,-3,6,i
Cc1ccc(-c2nnc3ccc(SCC(=O)N4CCCCC4)nn23)cc1,/,/,-6,1,/
# Other compounds.
SMILES,VCAM-1 inhibition,VCAM-1 augmentation,FPR binder,FPRL1 ligand,VCAM-1 down imaging
CC1CCCCC1NC(=O)Cn1nnc(-c2ccc(Cl)cc2)n1 (stereo not drawn),i,i,-4,2,i
COCCN1Cc2cccc(C(=O)Nc3cccnc3)c2C1=O,i,i,-2,0,i
CCC1Oc2ccc(C)cc2N(Cc2cccc(C)c2)C1=O (stereo not drawn),/,/,6,7,/
Cc1nn(-c2ccccc2)c2c1C(c1c(C)[nH]c(C#N)c1C)C(C#N)=C(N)O2 (stereo not drawn),i,i,3,-11,i
CC(=O)Nc1ccc(S(=O)(=O)N2CCSC2c2ccccc2)cc1 (stereo not drawn),i,i,0,-4,i
CCOC(=O)c1ccc(Nc2cc(C)nc3nc(C)nn23)cc1,/,/,-2,2,/
Cc1cccc(NC(=O)c2ccccc2Br)n1,/,/,10,1,/
COc1ccc(NC(=O)C2CCCN(S(=O)(=O)c3c(C)n[nH]c3C)C2)cc1 (stereo not drawn),/,/,0,-4,/
Cc1cc(Br)ccc1NC(=O)CCN1C(=O)c2ccncc2C1=O,i,i,-2,0,i
Cc1ccc2nc3c(cc2c1)CN(Cc1ccco1)C(=NCC1CCCO1)S3 (stereo not drawn),i,i,15,0,i
Cc1cc(NC(=O)Cn2cnc3c(cnn3C(C)(C)C)c2=O)no1,i,i,2,4,i
C=CCn1c(SCC(=O)O)nnc1-c1cccc(Cl)c1,i,i,0,-6,i
COC(=O)c1cc(NC2c3ccccc3C(=O)N2c2cccnc2)cc(C(=O)OC)c1 (stereo not drawn),/,/,6,-1,/
O=C(O)c1ccc2c3c(ncnc13)-c1ccccc1C2=O,i,i,0,14,i

# Ordered by molecular weight (descending): some entries from above
SMILES,VCAM-1 inhibition,VCAM-1 augmentation,FPR binder,FPRL1 ligand,VCAM-1 down imaging
Cc1cc(Br)ccc1NC(=O)CCN1C(=O)c2ccncc2C1=O,i,i,-2,0,i
CCC1Oc2ccc(C)cc2N(Cc2cccc(C)c2)C1=O (stereo not drawn),/,/,6,7,/
Cc1cccc(NC(=O)c2ccccc2Br)n1,/,/,10,1,/
